ClpP mod: qHTS Assay for Activators of ClpP; purified B. subtilis ClpP, FRET peptide cleavage, 20 min; Potency, µM (titrated, usually from 57.5 µM), inactives show at the top dose activity change, negative = active; 1.9% of 340,000 active; AID 651965, 2013; active = well fitted falling curve with a large enough effect; inconclusive = small, poorly fitted or top-dose-only effect; inactive = no such curve, though single readings can be large or run the other way; further: the source files actives as falling curves though it sought activators and does not explain the sign; nearly all actives have a fitted effect of over 65% in size; many hits overshoot -100%
Target sequence (P80244 whole entry, looked up): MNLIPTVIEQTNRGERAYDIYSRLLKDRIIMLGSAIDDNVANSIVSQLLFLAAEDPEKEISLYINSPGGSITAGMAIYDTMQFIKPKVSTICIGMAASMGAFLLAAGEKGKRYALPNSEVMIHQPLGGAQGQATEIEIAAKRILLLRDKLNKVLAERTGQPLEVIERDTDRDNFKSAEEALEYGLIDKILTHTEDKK
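Purified B. subtilis ClpP, 10 microg/mL final in Tris/HCl pH8 with KCl, BSA, glycerol and Tween-20, cleaved an Abz/nitrotyrosine-quenched decapeptide. Fluorescence (ex 320, em 430) was read at 0 and 20 min at room temperature. Delta was normalized to 5.8 microM ADEP and DMSO/no-enzyme controls.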
* hit, by the source's call; ? = inconclusive. Potency means the concentration at half of the fitted maximal effect. Not all compounds are listed (hit frequency here may not be typical).

SMILES	ClpP mod
COc1cc(C2c3c(-c4c(C)cc(C)cc4O)n[nH]c3C(=O)N2Cc2ccco2)cc(OC)c1OC (stereo unspecified)	-2.1%
COc1ccc(OC)c(NC(=O)N2CC(C)Oc3ccc(C)cc32)c1 (stereo unspecified)	-2.2%
CCN1CCN(CCCNC(=O)c2cnn(-c3ccc(C)cc3)c2C2CCN(C(=O)OC(C)(C)C)CC2)CC1	-0.9%
Cc1nn(CCC(=O)Nc2ccc(Cl)cc2)c(C)c1S(=O)(=O)N1CCCCC1	1.8%
O=C(Nc1ccc(S(=O)(=O)N2CCCCCC2)cc1)c1cc(=O)c2ccccc2o1	5.3%
COc1ccccc1C(=O)OCc1cc(=O)n2nc(-c3cccs3)sc2n1	-20%
CCC(=O)Nc1ccc2nc(SCc3ccc(C)cc3)sc2c1	3.9%
CC(=O)N1CCc2c(sc3c2c(=O)n(Cc2ccccc2)c(=O)n3Cc2ccccc2Cl)C1	-0.6%
Cc1ccc(-c2nc(=N)sn2Cc2ccccc2)cc1	-3.2%
CCOc1ccc(C(c2c(O)cc(C)n(Cc3ccco3)c2=O)N2CCCCC2)cc1 (stereo unspecified)	-4.1%
COc1cccc(NC(=O)CSc2nc3c([nH]c4ccccc43)c(=O)n2-c2cccc(Cl)c2)c1	-22%
Cc1cc2nn(-c3ccc(F)cc3)nc2cc1NC(=O)c1ccc(C(C)(C)C)cc1	4.2%
Cn1cc(C(=O)NCCc2ccc(Cl)cc2)c(=O)c2cc(S(=O)(=O)N3CCCCC3)ccc21	-2.8%
Cc1cc(C)c(NC(=O)CN2C(=O)c3cccnc3Oc3ccc(Cl)cc32)c(C)c1	1.9%
Cc1cccc(C(=O)Nc2cc3nn(-c4ccc(C(C)C)cc4)nc3cc2C)c1	10µM*
CN(C)c1ccc(/C=C2\C=Cc3ccccc32)c(Cl)c1	1.3%
Cc1ccc(-n2c(SCC(=O)N3CCc4ccccc43)nc3c([nH]c4ccccc43)c2=O)cc1	-9.8%
O=C(Cn1nc2c(cc1=O)CCCC2)Nc1ccc(F)cc1F	-0.7%
O=C(NCc1cccc(Cl)c1)C(=O)Nc1ccc2nc3n(c(=O)c2c1)CCCCC3	1.3%
COc1cccc(C(=O)Nc2ccccc2C(=O)OCc2cc(=O)n3c(C)csc3n2)c1	-3.0%
CCc1c(C)nc2nncn2c1NCc1ccc(OC)cc1	-2.7%
CCOc1ccccc1NC(=O)C1CCN(S(=O)(=O)c2ccc3[nH]c4c(c3c2)CCCCC4)CC1	?
CCn1cc(CNC(=O)c2cc(-c3ccc(C)cc3)nc3ccc(Br)cc23)c(C)n1	-11%
COc1ccc2nc(C)cc(Nc3ccc(Cl)c(Cl)c3)c2c1	-17%

4 entries from above, set out differently.
Compound,ClpP mod
O=C(Cn1nc2c(cc1=O)CCCC2)Nc1ccc(F)cc1F,-0.7%
O=C(NCc1cccc(Cl)c1)C(=O)Nc1ccc2nc3n(c(=O)c2c1)CCCCC3,1.3%
COc1cccc(C(=O)Nc2ccccc2C(=O)OCc2cc(=O)n3c(C)csc3n2)c1,-3.0%
CCc1c(C)nc2nncn2c1NCc1ccc(OC)cc1,-2.7%

The list continues.
SMILES	ClpP mod
Cc1ccccc1OCCSc1nc(C)c(Cc2ccccc2)c(=O)[nH]1	2.0%
Cc1ccccc1OCC(=O)Nc1ccc2nc(SCCOc3ccccc3)sc2c1	-11%
Cc1cccc(Cn2c(SCc3ccc(C(=O)NCCc4ccccc4)cc3)nc3ccncc32)c1	?
COc1ccc(OC)c(NC(=O)Cn2ncc3c2-c2ccccc2OC3)c1	-0.8%
CC1CCCCN1C(=O)CSc1nc(-c2ccccc2)no1 (stereo unspecified)	-5.1%
COc1ccc(Cl)cc1-n1cc(-c2ccccc2)nc1SCC(=O)Nc1ccc(C)cc1	-0.2%
COc1cc2nc(SCC(=O)Nc3cccc(C)c3)n3nc(-c4ccccc4)nc3c2cc1OC	-5.5%
CCOCCCNC(=O)c1ccc(-n2c(-c3ccccc3)cc3c2CCCCC3)cc1	-24%
CCOCCc1nn2c(=O)cc(COC(=O)c3ccccc3NC(=O)C3CCCCC3)nc2s1	-7.5%
CCOC(=O)c1ccc(Nc2nn3c(=O)c4ccccc4nc3s2)cc1	-11%
Cc1nn(-c2ccccc2)c2c1N(CC(=O)N1CCN(c3ccc(Cl)cc3)CC1)C(=O)CS2	0.9%
CCOc1ccc(N(CC)S(=O)(=O)N2CCCC(C(=O)Nc3ccc(NC(C)=O)cc3)C2)cc1 (stereo unspecified)	-1.6%
Cc1nc(-c2ccc(F)cc2)sc1CCNC(=O)c1cccs1	?
Oc1c(C(c2ccccc2)N2CCCC2)sc2nc(-c3ccco3)nn12 (stereo unspecified)	-0.4%
O=C(Nc1ccc(OC(F)(F)F)cc1)c1noc2c1CCCC2	8.9%
CCc1nn(CC(=O)NCCc2ccc(OC)c(OC)c2)c(=O)c2cc3occc3n12	-3.8%
CCCC(=O)N1c2nc(C(C)C)nn2C2(CCCCC2)[C@@H]2CCCC[C@@H]21	-2.5%
Cc1nnc(NC(=O)c2nc(SCc3ccccc3F)ncc2Cl)s1	1.1%
Cc1nnc2c3ccccc3nc(Nc3cccc(O)c3)n12	-1.7%
Cc1c(CC(=O)N2CCCCC2)c(=O)oc2cc(O)ccc12	4.4%
COCCn1c(C)cc(O)c(C(c2ccccc2)N2CCCCC2)c1=O (stereo unspecified)	1.1%
COc1cccc(CNC(=O)c2nn(C)c3c2CS(=O)(=O)c2ccccc2-3)c1	-8.9%
COc1ccc(CCNC(=O)c2ccc3c(Cl)c4c(nc3c2)CCCC4)cc1OC	28%
CCn1c(C(=O)Nc2cc(Cl)ccc2C)cc2sc(Cl)cc21	?
COc1ccc(-c2cccc(NS(=O)(=O)c3ccc(NC(C)=O)cc3)c2)nn1	-3.4%
COc1ccc(Cl)cc1S(=O)(=O)N1CCN(Cc2cccc(F)c2)CC1	-3.3%
COc1ccc(OCCCn2c(C)nc3cc(C)c(C)cc32)cc1	1.0%
Cc1ccc2[nH]c(=O)c(CN(Cc3ccco3)Cc3nnnn3Cc3ccco3)cc2c1	?
CCN1CCN(C(=O)c2ccc3c(c2)N(Cc2cccc(Cl)c2)C(=O)c2ccccc2S3=O)CC1 (stereo unspecified)	-0.2%
Oc1c(C(c2cccc(Br)c2)N2CCCC2)sc2nc(-c3ccco3)nn12 (stereo unspecified)	0.0%
Cc1ccc(-n2ncc(C(=O)Nc3ccc4c(c3)OCCO4)c2C2CCN(C(=O)OC(C)(C)C)CC2)cc1C	0.0%
CCN(CC)CCNC(=O)C(=O)NCC(c1cccnc1)N1CCN(c2ccccc2)CC1 (stereo unspecified)	-2.2%
COc1cc(NC(=O)c2ccc(C(=O)Nc3cc(OC)c(Cl)cc3OC)cc2)c(OC)cc1Cl	-2.1%
CCC(C)NC(=O)C1CCC(CNS(=O)(=O)c2ccc(Cl)cc2)CC1 (stereo unspecified)	2.9%
CCN(CC)CCOC(=O)c1ccc(NC(=O)CCn2c(=O)oc3ccccc32)cc1	-0.7%
COc1ccccc1NC(=O)C1=C(C)Nc2nc(-c3ccco3)nn2C1c1cccc(C)c1 (stereo unspecified)	-0.1%
CC(C)OCCCNC(=O)CN1C(=O)c2ccccc2Sc2ncccc21	1.7%
COc1cccc(NC(=O)CSC2=Nc3ccccc3C3=NC(CC(=O)NCc4ccccc4OC)C(=O)N23)c1 (stereo unspecified)	-15%
Cc1ccc(S(=O)(=O)N2CCc3cc(C(=O)NCCc4ccccc4)ccc32)cc1	-0.6%
Cc1cc(C)c(NC(=O)C2CCN(S(=O)(=O)c3c(C)noc3/C=C/c3ccccc3F)CC2)c(C)c1	?
CCN(CC)c1ccc(NC(=O)c2cc(C)nc3c2c(C)nn3-c2ccc(C)cc2)c(C)c1	-3.5%
CC1CCCCN1C(=O)Cn1c(=O)n(-c2ccc(Cl)cc2)c(=O)c2c3c(sc21)CCC3 (stereo unspecified)	0.7%
CCc1nn(CC(=O)Nc2ccc(C)cc2C)c(=O)c2cc3sccc3n12	-9.6%
CCc1nn2c(=O)cc(COC(=O)c3cccc(NC(=O)c4cccs4)c3)nc2s1	4.6%
Cc1cn2c(=O)cc(COC(=O)c3ccc(NC(=O)C(C)Oc4ccccc4)cc3)nc2s1 (stereo unspecified)	-14%
Cc1ccn2c(Nc3ccc4c(c3)OCO4)c(-c3ccc(Cl)cc3)nc2c1	4µM*
COc1cc2c(=O)n(Cc3ccccc3Cl)c(=O)n(CC(=O)Nc3ccccc3)c2cc1OC	4.1%
Cc1nnc(NC(=O)CSc2nccn2Cc2ccc(Cl)cc2)s1	1.9%
CCc1ccccc1N(C)C(=O)c1cc2c(s1)-c1c(C)cccc1OC2	3.4%
COCCCNC(=O)c1cc2c(=O)oc3ccc(C)cc3c2s1	4.1%
Cc1ccc(NC(=O)C2=CC(c3ccc4c(c3)OCO4)=NS(=O)(=O)N2C)cc1	-1.3%
CC(=O)OCc1cc(=O)n2nc(C3CCCCC3)sc2n1	-10%
CCOC(=O)c1ccc(NC(=O)Cn2cnc3sc(C(=O)OCC)c(C)c3c2=O)cc1	-4.4%
COc1ccc(CN(C(=O)Nc2ccccc2)c2ccccn2)cc1OC	0.0%
CCN1C(=O)c2ccccc2S(=O)(=O)c2ccc(C(=O)NCc3ccc(OC)cc3)cc21	0.9%
CCOC(=O)N1CCc2c(sc(NCc3cccc(F)c3)c2C(=O)Nc2ccc(OC)cc2OC)C1	-7.3%
Fc1ccccc1Cc1cn2cc(-c3ccc(Cl)cc3)nc2s1	-0.4%
COc1ccc(CNC(=O)Cn2c(=O)n3nc(-c4cccc(F)c4)nc3c3ccccc32)cc1OC	-2.5%
Cc1cc(C)cc(-n2c(SCC(=O)NCC3CCCO3)nc3c([nH]c4ccccc43)c2=O)c1 (stereo unspecified)	8.6%
CSc1nc(C)cc(Nc2c(C)cc(C)cc2C)n1	0.3%
(continued)
SMILES	ClpP mod
CCOc1ccc(-c2nonc2NC(=O)c2oc3cc(C)ccc3c2C)cc1	?
Cc1cc(C)c(S(=O)(=O)Nc2cccc(-c3cn4ccccc4n3)c2)c(C)c1	28µM*
Cc1cccc(N2CCN(C(=O)Nc3cn(CC(C)C)c(=O)c4ccccc34)CC2)c1C	3.8%
CNS(=O)(=O)c1cc(-c2nn3c(C)nnc3c3ccccc23)ccc1C	-12%
Cc1ccc(C)n1-c1nnc(N2CCCC(C(=O)Nc3ccc(C(C)C)cc3)C2)s1 (stereo unspecified)	2.1%
CCOC(=O)c1sc2cccc(F)c2c1S(=O)(=O)NCc1ccccc1Cl	-1.7%
CCC(=O)OCc1cnc(C)c2oc(=O)c(C(=O)Nc3ccccc3C(F)(F)F)cc12	-23%
Cc1ccc(NC(=O)CC2Sc3ccccc3NC2=O)c(Br)c1 (stereo unspecified)	-2.6%
CCc1ccc(NC(=O)c2ccc(CN3C(=O)C(C)=C(c4ccc(C)cc4)S3(=O)=O)cc2)cc1	-3.0%
CCCNC(=O)CSc1nc2nc(C)c(Cc3ccccc3Cl)c(C)n2n1	-13%
Cc1cccc(C)c1OCC(=O)Nc1nc(-c2ccc(Br)cc2)ns1	0.7%
Cc1cccc(-c2nc3c(cnn3-c3ccccc3)c(=O)n2-c2cccc(Cl)c2)c1	?

Reformatted bar-delimited: entries from further up
Compound | ClpP mod
Cc1cccc(C)c1OCC(=O)Nc1nc(-c2ccc(Br)cc2)ns1 | 0.7%
CCOC(=O)c1sc2cccc(F)c2c1S(=O)(=O)NCc1ccccc1Cl | -1.7%
CCOc1ccc(-c2nonc2NC(=O)c2oc3cc(C)ccc3c2C)cc1 | ?
CCc1ccc(NC(=O)c2ccc(CN3C(=O)C(C)=C(c4ccc(C)cc4)S3(=O)=O)cc2)cc1 | -3.0%
Cc1cccc(-c2nc3c(cnn3-c3ccccc3)c(=O)n2-c2cccc(Cl)c2)c1 | ?
Cc1ccc(C)n1-c1nnc(N2CCCC(C(=O)Nc3ccc(C(C)C)cc3)C2)s1 (stereo unspecified) | 2.1%
CCCNC(=O)CSc1nc2nc(C)c(Cc3ccccc3Cl)c(C)n2n1 | -13%

Additional results
SMILES	ClpP mod
COc1ccc(-c2ccc3c(N)c(C(=O)NCc4ccc(C)cc4)sc3n2)cc1	11µM*
CCN(CC)c1ccc(NS(=O)(=O)c2cc(-c3onc(C)c3C)ccc2OC)c(C)c1	-1.4%
COc1ccc(CCNc2nc(-c3ccc(F)cc3)cc(C(F)(F)F)n2)cc1OC	4.0%
O=C(O)/C=C/c1ccc2c(c1)S(=O)(=O)N(C1CCCC1)[C@H]2CC(=O)O	-1.3%
Cc1ccc(N2CCN(C(=O)CCc3c(C)nc4ncnn4c3C)CC2)c(C)c1	0.7%
Cc1ccc(Nc2sc(C(=O)c3ccccc3)c(N)c2C(N)=O)cc1	-0.3%
Cc1ccc(S(=O)(=O)N2CCN(c3nc(-c4cscn4)nc4ccccc34)CC2)cc1	-19%
COc1ccc(-n2nc(C(=O)N3CCN(c4cccc(C(F)(F)F)c4)CC3)c3c4ccccc4n(C)c3c2=O)cc1Cl	-1.3%
O=C(NCC(c1cccnc1)N1CCc2ccccc2C1)C(=O)Nc1ccccc1 (stereo unspecified)	-1.1%
Cc1ccc(-c2nc(CCNC(=O)C(=O)Nc3c(C)cccc3C)cs2)cc1	39%
Cc1ccc(-n2c(C)nc3c(cnn3-c3ccccc3)c2=O)cc1	-1.2%
Cc1cc(C)cc(NC(=O)Cn2cc(C(=O)c3cccs3)c3ccccc32)c1	-27%
CC(=O)c1ccc(NS(=O)(=O)c2c(C)nc3scc(C)n3c2=O)cc1	-11%
COc1ccc(OCCn2c(C(C)Oc3ccccc3)nc3ccccc32)cc1 (stereo unspecified)	0.0%
Cc1ccc(S(=O)(=O)Nc2nc3n(n2)C(c2ccc(Cl)cc2)C=C(c2ccccc2)N3)cc1 (stereo unspecified)	-2.7%

Source: PubChem BioAssay (National Center for Advancing Translational Sciences (NCATS))
